# VDR inhibitor = Inhibitors of the vitamin D receptor (VDR): qHTS; Vitamin D3 receptor (Homo sapiens), P11473; VDR-SRC2-3 peptide fluorescence polarization, 2 h; Potency, µM, for inactives: max response, negative = inhibition, most hits filed as inhibitors; 400,000 compounds, 0.93% hits; AID 504847, 2011; active = well fitted inhibition curve with a large enough effect; inconclusive = small, poorly fitted or top-dose-only effect, or another doubt; inactive = no such curve, though single readings can be large or run the other way; also: series mostly up to about 120 µM
# Target sequence (P11473 whole entry, looked up): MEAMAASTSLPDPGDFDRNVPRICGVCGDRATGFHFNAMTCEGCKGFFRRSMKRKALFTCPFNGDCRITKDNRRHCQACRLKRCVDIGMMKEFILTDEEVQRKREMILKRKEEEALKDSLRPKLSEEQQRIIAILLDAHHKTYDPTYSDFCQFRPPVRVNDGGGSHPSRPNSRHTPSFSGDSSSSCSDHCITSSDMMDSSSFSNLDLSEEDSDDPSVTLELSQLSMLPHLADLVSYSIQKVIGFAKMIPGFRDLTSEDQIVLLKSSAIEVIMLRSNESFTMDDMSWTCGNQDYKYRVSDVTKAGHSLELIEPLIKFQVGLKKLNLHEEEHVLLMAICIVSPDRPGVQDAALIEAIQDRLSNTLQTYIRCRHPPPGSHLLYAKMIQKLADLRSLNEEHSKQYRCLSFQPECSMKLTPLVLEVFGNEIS
#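 Fluorescence polarization assay of small-molecule disruption of VDR binding to coregulator peptide SRC2-3. Compounds and controls pin-transferred, then read after 2 h incubation at ambient room temperature.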
# The depositor's hits bear a star; ? = inconclusive; & = joins results of further samples; [ ] = remark or other dose. % is scaled to controls: 0 for no effect and ±100 for the full control effect; potency is read from the fitted curve at half-maximal effect. An excerpt; rates above refer to the full screens.
nr	Compound	VDR inhibitor
1	Cc1ccccc1C(=O)NC(=S)N(Cc1ccccc1)c1ccccn1	?
2	CCOc1cc(NC(=O)c2cccs2)c(OCC)cc1NC(=O)CCC(=O)NCc1ccccn1	-6%
3	CCN(CC)Cc1ccccc1Sc1ccccc1	-4%
4	CC1(C)CC(=O)C=C(N=CC2=C(O)CC(C)(C)CC2=O)C1	3%
5	Cc1ccc(S(=O)(=O)Nc2ccncc2)c(C)c1N(C)S(=O)(=O)c1ccc(Cl)cc1	-3%
6	COc1cccc(OC2OC3COC(C)(C)OC3C(O)C2NC(C)=O)c1 (stereo not drawn)	-14%
7	Cc1ccc(CCNC(=O)c2c(C)nn(-c3ccc(F)cc3)c2-n2cccc2)cc1	7%
8	CCOc1cc(C2NC(=O)c3c(sc4c3CCN(C)C4)N2)ccc1OC(=O)c1ccc(Br)cc1 (stereo not drawn)	-15%
9	COCCCNC(=O)c1c(NC(=O)c2cc(=O)c3ccccc3o2)sc2c1CCCC2	7%
10	Cn1c(=O)n(C)c2cc(NC(=O)COc3ccc(Cl)cc3)ccc21	-10%
11	CC(NC(=O)CCc1nc2cc(S(=O)(=O)N3CCOCC3)ccc2n1C)c1ccc(S(N)(=O)=O)cc1 (stereo not drawn)	4%
12	C=CCNC(=O)/C(C#N)=C/c1ccccc1[N+](=O)[O-]	-7%
13	O=C(N/N=C/c1cn(Cc2cccc(F)c2)c2ccccc12)c1cc(O)cc(O)c1	34%[activator]
14	O=C(CN1CCCC1)Nc1ccccc1Cl	-4%
15	CC(O)CNc1cnccn1 (stereo not drawn)	-5%
16	CCC(Sc1nc2ncccc2[nH]1)C(=O)N1CCOCC1 (stereo not drawn)	-1%
17	CCOc1ccc(S(=O)(=O)NCCc2csc3nc(-c4cccc(C)c4)nn23)cc1	11%
18	CN(C1CCCCC1)S(=O)(=O)c1ccc(C(=O)Nc2sc3c(c2C(N)=O)CC(C)(C)NC3(C)C)cc1	-2%&3%
19	O=C(c1cccc(S(=O)(=O)N2CCCC2)c1)N1CCN(c2ncccn2)CC1	-3%
20	CN1CCN(C(=O)CNC(=O)Cc2ccc(Cl)cc2)CC1	8%

# (further entries)
nr	Compound	VDR inhibitor
21	Cc1cc(Cl)c(S(=O)(=O)N2CCN(c3ccccc3)CC2)cc1OCC(N)=O	16%
22	NC(=O)c1ccc(-c2csnn2)cc1	7%
23	COc1cccc(NC2=Nc3cccc4cccc2c34)c1	-1%
24	COc1ccc(CNC(=O)c2ccc[nH]2)cc1Cl	16%
25	COC(=O)c1ccccc1S(=O)(=O)N1CCC(C(=O)OC(C)C(=O)Nc2ccc(NC(C)=O)cc2)CC1 (stereo not drawn)	13%
26	CCN(CC)C(=O)c1sc2nc(-c3ccccn3)[nH]c(=O)c2c1C	-2%
27	CCOC(=O)NNC(=S)Nc1c(C)n(C)n(-c2ccccc2)c1=O	5%
28	O=C(CSc1nc(COc2ccccc2)nc2ccccc12)NC1CCCC1	-1%
29	CSc1ccc(CN(C)CC(=O)NC(C)c2ccccc2)cc1 (stereo not drawn)	-4%
30	COc1ccc(/C=C/C(=O)OCC(=O)NC2CCCCC2C)c(OC)c1 (stereo not drawn)	4%
31	COc1ccc(S(=O)(=O)/C(C#N)=C/Nc2ccccc2F)cc1	-18%
32	Cc1csc(NC(=O)C2CCCCN2S(=O)(=O)c2ccccc2)n1 (stereo not drawn)	-12%
33	COc1cc(/C=C/C(=O)OCC(=O)Nc2cc(C)on2)ccc1OCC#N	28%
34	CCOCCCn1c(=NC(=O)c2cccs2)c(C#N)cc2c(=O)n3ccccc3nc21	16%
35	O=C(COc1ccccc1-c1ccccc1)Nc1ccc(S(=O)(=O)NCc2ccco2)cc1	0%
36	CC(=O)OC[C@@]1(O)C[C@]23CCC4c5ccoc5CC[C@@]4(C)C2CCC1C3 (stereo partly drawn)	-3%
37	CCOC(=O)Nc1cc(C)c(Cl)cc1OC	4%
38	NC(=O)C1CC(=O)N(c2ccc(OCc3ccccc3Cl)cc2)C1 (stereo not drawn)	9%
39	CC1=CCC2C(=O)N(c3ccccc3OC(=O)c3ccccc3F)C(=O)C2C1 (stereo not drawn)	-2%
40	CCOc1ccc(N(C)S(=O)(=O)c2ccc(-c3cc(C)no3)s2)cc1	26%

# Quoted from above: compounds 21–25
nr	Compound	VDR inhibitor
21	Cc1cc(Cl)c(S(=O)(=O)N2CCN(c3ccccc3)CC2)cc1OCC(N)=O	16%
22	NC(=O)c1ccc(-c2csnn2)cc1	7%
23	COc1cccc(NC2=Nc3cccc4cccc2c34)c1	-1%
24	COc1ccc(CNC(=O)c2ccc[nH]2)cc1Cl	16%
25	COC(=O)c1ccccc1S(=O)(=O)N1CCC(C(=O)OC(C)C(=O)Nc2ccc(NC(C)=O)cc2)CC1 (stereo not drawn)	13%

# Continued:
nr	Compound	VDR inhibitor
41	Cc1ccc(S(=O)(=O)NCC(=O)NCC(=O)OC(C(=O)NC(N)=O)C(C)C)cc1C (stereo not drawn)	2%
42	CN(C)Cc1c(O)ccc2oc(Cc3ccccc3)cc12	5%
43	Cc1ccc(-c2nc(CS(=O)CC(=O)NCc3ccco3)c(C)o2)cc1 (stereo not drawn)	?
44	Cc1cc(/C=N\NC(=O)CC(=O)NC2CCCCC2)c(C)n1-c1cccc(Cl)c1Cl	-17%
45	O=C(c1ccccc1)N1CCn2c(nc3ccccc32)C1	-8%
46	COc1ccc(S(=O)(=O)N2N=C(C)Oc3ccccc3C2=O)cc1	-1%
47	O=C(NCC1COc2ccccc2O1)c1ccc(Br)s1 (stereo not drawn)	3%
48	COc1cccc(CNC(=O)CSc2ccc(-c3sc(-c4ccccc4)nc3C)nn2)c1	2%
49	COc1cc(/C=N/N=C(\N)c2nonc2N)ccc1O	13%
50	CCOc1ccc(-n2c(SCC(=O)Nc3ccc(OC)cc3OC)nc3c(c2=O)SCC3)cc1	4%
51	COc1ccc2c(c1)c1c(c(=O)n(-c3ccccc3)c(=O)n1CC(=O)NCc1ccc(C)cc1)n2C	-1%
52	Cc1ccc(-c2nnn(CC(=O)N(Cc3ccco3)C(C(=O)NC(C)(C)C)c3cccs3)n2)o1 (stereo not drawn)	6%
53	C[C@@H]1C(c2ccc(F)cc2)=NN(c2ccccc2)[C@H]1C(=O)N1CCOC1=O	12%&0%
54	CCCn1c(SCC(=O)Nc2ccccc2C(=O)OC)nc2c1c(=O)n(C)c(=O)n2C	-11%
55	Cn1c(CNc2nc(-c3ccccc3)cs2)nnc1SCC(=O)N1CCc2ccccc21	-14%
56	Cc1cccc(NC(=O)c2cc3ccccc3oc2=O)c1	11%
57	CC(=O)c1cccc(NC(=O)c2nc(-c3ccccc3)n(-c3cccc(Cl)c3)n2)c1	3%
58	CN(C)NC(=S)NC1CCS(=O)(=O)C1 (stereo not drawn)	18%
59	N#C/C(=C/N1CCOCC1)c1ccccc1	11%
60	COCCn1nnnc1C(c1ccc2ncccc2c1)N1CCN(c2ccccc2F)CC1 (stereo not drawn)	4%

# Remaining list, next part
nr	Compound	VDR inhibitor
61	Cc1ccc(C)c(Nc2nc3c(S(=O)(=O)c4ccccc4)nnn3c3ccccc23)c1	7%
62	Cc1cc(C)cc(C(=O)NCCCN2CCOCC2)c1	10%
63	CN(C)CCNC(=O)c1scc2c1CCCC2	-12%
64	CCCCn1nc(NS(=O)(=O)c2cccc3nonc23)c2cc3cccc(C)c3nc21	-4%
65	COc1ccc(-c2noc(Cc3ccccc3OC)n2)cc1	-1%
66	Cc1ccc(NS(=O)(=O)c2ccc3nc(-c4ccccc4)[nH]c3c2)c(Cl)c1	-7%
67	Cc1cc(C)n(CCC(=O)N/N=C/c2cccc([N+](=O)[O-])c2)n1	7%
68	CCOC(=O)c1c(C)cccc1OCC(N)=O	10%
69	COc1ccccc1-c1cc(C(=O)NCCCN2CCOCC2)no1	3%
70	CCOc1ccc(NS(=O)(=O)c2ccc3[nH]cc(C(=O)NCCc4ccccc4)c(=O)c3c2)cc1	8%
71	O=C(Cc1ccc([N+](=O)[O-])cc1)Nc1cc(C(F)(F)F)cc(C(F)(F)F)c1	-4%
72	C1CCC(C23CC4CC(CC(C4)C2)C3)NC1 (stereo not drawn)	10%
73	Cc1ccc(C(=O)NC2CCCCNC2=O)cc1C (stereo not drawn)	4%
74	COc1cc(-c2nnc(SCC#CCO)o2)cc(OC)c1OC	6%
75	Cc1ccnc(NC(=O)CNC(=O)c2ccccc2Br)c1	7%
76	CN(C(=O)c1cccc(NC(=O)Cc2ccc([N+](=O)[O-])cc2)c1)C1CCCCC1	-6%
77	O=C(N/N=C1\CC2CC=CC12)c1ccc(COc2ccccc2)cc1 (stereo not drawn)	-5%
78	CCOc1ccccc1NC(=O)c1c(NC(=O)C(C)Oc2ccc(Cl)cc2)sc2c1CCCCC2 (stereo not drawn)	-5%
79	Cc1ccccc1N(CC(=O)N1CCCC1)S(=O)(=O)c1ccc(Cl)cc1	-14%
80	O=C(Oc1cccnc1)c1cccc(Cl)c1	-1%

# Brought forward from above: seven entries, followed by the next part.
nr	Compound	VDR inhibitor
74	COc1cc(-c2nnc(SCC#CCO)o2)cc(OC)c1OC	6%
75	Cc1ccnc(NC(=O)CNC(=O)c2ccccc2Br)c1	7%
76	CN(C(=O)c1cccc(NC(=O)Cc2ccc([N+](=O)[O-])cc2)c1)C1CCCCC1	-6%
77	O=C(N/N=C1\CC2CC=CC12)c1ccc(COc2ccccc2)cc1 (stereo not drawn)	-5%
78	CCOc1ccccc1NC(=O)c1c(NC(=O)C(C)Oc2ccc(Cl)cc2)sc2c1CCCCC2 (stereo not drawn)	-5%
79	Cc1ccccc1N(CC(=O)N1CCCC1)S(=O)(=O)c1ccc(Cl)cc1	-14%
80	O=C(Oc1cccnc1)c1cccc(Cl)c1	-1%
81	O=C(Nc1ccccc1C(=O)O)/C(=C/c1ccc(Cl)cc1Cl)NC(=O)c1ccco1	-7%
82	Cc1ccc(C)c(NCc2ccccc2CO)c1	17%
83	Cc1ccccc1-c1nsc(SCC(=O)Nc2ccc3c(c2)OCO3)n1	7%
84	COC(=O)c1ccc(-c2nn(C)c(=O)c3ccccc23)cc1	12%
85	CCOC(=O)C1=C(C)NC(=O)C(C(N)=O)C12CCCC2 (stereo not drawn)	-1%
86	Cc1ccc(CNC(=O)Cn2cc(S(=O)(=O)Cc3ccccc3F)c3ccccc32)cc1	9%
87	Cc1cnc(C(=O)OCC(=O)NCc2cccc(Cl)c2)cn1	-11%
88	Cc1cccc(CCNC(=O)Cn2ncc3c([nH]c4ccccc43)c2=O)c1	6%
89	CCN1CCC(NC(=O)c2cc(OC)c(OC)cc2OC)CC1	5%
90	COC(Cc1nnc(SC)n1-c1ccc(Cl)cc1)OC	-14%
91	CSCCC(NS(=O)(=O)c1ccccc1F)C(=O)NCc1cccnc1 (stereo not drawn)	8%
92	COCCNC(=O)C(OC(=O)c1cccs1)c1ccccc1 (stereo not drawn)	-7%
93	COc1ccc(C2=CC(c3ccccc3F)n3ncc(C(=O)Nc4ccc(C)cc4)c3N2)cc1 (stereo not drawn)	6%
94	C1CCCN(CCCCN2CCCCCC2)CC1	0%
95	CCn1c(SCC(=O)N2CCN(c3ccc(F)cc3)CC2)nc2ccccc2c1=O	4%
96	O=C1CS(=O)(=O)C2(C(=O)N(Cc3ccccc3Cl)c3ccccc32)N1c1ccc(F)cc1 (stereo not drawn)	11%
97	NC(CSCSCC(N)C(=O)O)C(=O)O (stereo not drawn)	6%
98	Cc1ccc(-n2c3c(c(=O)[nH]c2=S)C(C(F)(F)F)(C(F)(F)F)NC(=O)N3)cc1	-8%
99	CC(C)(C)c1nnc(NC(=O)Cc2ccccc2[N+](=O)[O-])s1	-11%
100	Nc1c(N(Cc2ccco2)C(=O)c2cccc(F)c2)c(=O)[nH]c(=O)n1Cc1ccccc1	4%

# (more compounds)
nr	Compound	VDR inhibitor
101	Cc1cccc(N2CCN(C(=O)c3cc4ccc5cccnc5c4[nH]3)CC2)c1C	3%
102	COc1ccc(N2CCN(C(=O)C3CCN(S(=O)(=O)c4c(C)noc4/C=C/N(C)C)CC3)CC2)cc1	5%
103	O=C(Nc1cccnc1)c1ccc(S(=O)(=O)c2ccc(Cl)cc2)cc1	-24%
104	COc1ccccc1NC(=O)CSc1nnc(-c2ccccc2)o1	-4%
105	CCN(CC)S(=O)(=O)c1cccc(NC(=O)c2cc(-c3cccs3)nn2-c2ccccc2)c1	-13%
106	CCCC(=O)Nc1c(-c2ccccc2)c(=O)c(C)nn1-c1ccc(Cl)cc1	-17%
107	COc1cccc(NC(=O)COC(=O)c2ccco2)c1	0%
108	Fc1ccccc1-c1cc2ncccc2cn1	-7%
109	CCc1ccccc1NC(=O)C1c2ccccc2Oc2ccccc21	-11%
110	O=C(COc1ccc(Cl)cc1)NNC(=O)C(=O)NC1CCCCC1	-5%
111	O=C(O)CN1CCN(C(c2ccccc2)c2ccccc2)CC1	3%
112	O=C(COc1ccc(Cl)cc1)Nc1nnc2n1CCS2	13%
113	O=C(c1ccc(CS(=O)c2ccccc2Cl)o1)N1CCN(c2ccccn2)CC1 (stereo not drawn)	-5%
114	CCCCNC(=O)CN(c1cccc(F)c1)S(C)(=O)=O	9%
115	O=C(NCc1ccc2c(c1)OCO2)C1(S(=O)(=O)c2ccccc2)CC1	-9%
116	Cc1ccc(CNC(=O)C(OC(=O)c2ccco2)C(C)C)cc1 (stereo not drawn)	-8%
117	Cc1ccc(S(=O)(=O)NC(=O)COc2cc(C)ccc2C(C)C)cc1	-4%
118	COc1ccc(C(=O)Nc2cnn(Cc3c(F)cccc3Cl)c2)cc1OC	0%
119	Cc1c(C(=O)NCCN2CCOCC2)oc2ccc(S(=O)(=O)N3CCCCCC3)cc12	-7%
120	Cc1ccc(-n2nnnc2SCC(=O)Nc2cccnc2Cl)cc1	8%
121	COc1ccccc1CNC(=O)C(=O)NCCC1CCCCN1S(=O)(=O)c1ccccc1 (stereo not drawn)	5%
122	O=C(/C=C/c1cccc([N+](=O)[O-])c1)NC(=S)Nc1ccc(CN2CCOCC2)cc1	?

# High-throughput results (PubChem BioAssay)
